Screening results deposited in PubChem BioAssay by several laboratories.
Bead autofluor: compound fluorescence in toxin protease inhibitor counterscreen. compound autofluorescence counterscreen, microsphere flow cytometry; hits give high values. fluorescence intensity (no concentration beside the values). hit rate 3.1% among 360,000. AID 624483;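 active = at least 3 SD above the mean of all compounds, about 16000 in these data; inconclusive = too few beads counted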;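 note: 100 nL of 1 mM stock went into each well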
BJeLR lethal: kills HRASV12-expressing BJeLR cells; BJeLR (HRASV12) viability, CellTiter-Glo ATP luminescence, 48 h; reference of the scale not given here; inhibition, % (concentration not given with the values); hit rate 0.17% among 300,000; AID 1554;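 active = replicate mean above 50%; inconclusive = above 50% but judged a plate artefact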;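 note: 50 nL library stock added to about 25 µL; numbers are from one replicate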
RN4220 kill: kills Staphylococcus aureus RN4220; hit rate 0.33% among 330,000; S. aureus RN4220 growth, OD600, 16 h; inhibition, % (test concentration not listed);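 active = z-score of -3 or lower and OD600 up to 0.18 on both plates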;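 note: plate controls were untreated cells for no effect and reference antibiotic for full effect; stock transfer was 100 nL into about 80 µL; one replicate is shown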
PrP 5UTR inh: inhibition of PrP 5' UTR reporter expression; cell-based PrP 5' UTR mRNA reporter, plate reader; inhibition, % (concentration not given with the values); hit rate 0.35% among 340,000; AID 488862;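 active = every replicate at 50% or more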;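 note: 0 = median of the neutral control wells; tested in H4 reporter cells; numbers are from one replicate; inactives centre near -14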
Mtb hypoxia rep: reduces hypoxia-regulated biosensor signal in M. tuberculosis; fluorescence inhibition, % (no concentration beside the values); M. tuberculosis hypoxia-regulated fluorescent reporter, fluorescence; hit rate 0.1% among 300,000; AID 1159583;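 active = 35 to 45% if threefold the growth effect, above 45% if 1.5-fold the growth effect; inactive = the rest, general growth blockers included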;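 note: wells of about 50 µL received 100 nL stock; 0% = vehicle wells and 100% = reference inhibitor wells; whole bacteria with a GFP reporter of the hypoxia response; strong numbers were not always called active; many hits fall short of the cut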
Sa ugtP lethal: growth inhibition of S. aureus ugtP deletion strain; S. aureus RN4220 ugtP deletion, OD600 growth, 16 h; some inactives read as strong as hits; growth inhibition, % (concentration not given with the values); hit rate 0.54% among 330,000; AID 1259309;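 active = z-score under -3 and OD600 up to 0.15 on both plates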;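 note: plate controls were untreated wells for no effect and antibiotic for full effect; wells of about 80 µL received 100 nL stock; the first replicate is given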
Mtb hypoxia rep growth: second read-out of Mtb hypoxia rep, no call of its own (marks repeat the call); growth inhibition, %; measured here: M. tuberculosis growth (absorbance);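 0% = vehicle and 100% = reference antibiotic; read after six days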
* marks the source's active call; other numbers are inactive results; ? = inconclusive; · = no result given; & = joins results of further samples. Hits appear at their usual frequency; 3.9% or so of the library scored in one or more.

SMILES	Bead autofluor	BJeLR lethal	RN4220 kill	PrP 5UTR inh	Mtb hypoxia rep	Mtb hypoxia rep growth	Sa ugtP lethal
Cc1ccc2c(c1)c1c(n2C)C(C(N)=O)CCC1 (stereo not given)	22355*	5	-2.9	-14	-10	-1	-6
O=c1[nH]c2ccc(S(=O)(=O)NCCO)cc2[nH]1	4523	7	8.1	-31	12	5	-2
O=C1CCCCC1c1cccc2ccccc12 (stereo not given)	6677	4	8.5	-7	4	5	4
Cc1ccc(S(=O)(=O)C(C#N)c2nc3ccccc3nc2OC(C)C)cc1 (stereo not given)	9708	-1	8.1	-37	9	-2	-5
CC[C@@]1(C(=O)OC)N[C@H](CN(C)C(=O)C2CCCCC2)[C@@H]2C(=O)N(Cc3ccccc3)C(=O)[C@@H]21	3023	·	5.0	15	1	0	12
O=C(COC(=O)c1cncc(Br)c1)NCCC1=CCCCC1	5013	-3	1.0	-2	10	9	0
CCOCCn1c(N2CCCC2)nc2c1c(=O)n(C)c(=O)n2C	4078	0	2.5	-19	0	13	10
Cc1cc(C)c(C#N)c(SCc2ccccc2)n1	2419	-4	9.6	-15	14	5	10
Cc1ccnc(NC(=O)Nc2ccc3c(c2)N(C)C(=O)CS3)c1	7932	-5	21	-186	0	0	-8
CCc1nnc(NC(=O)C2(C)COC(c3ccc(OC)cc3)OC2)s1 (stereo not given)	3151	-17	-1.5	-26	8	1	1
CC(OC(=O)CCN=C1NS(=O)(=O)c2ccccc21)C(=O)NC1CCCCC1C (stereo not given)	5265	-6	-1.7	1	-6	-3	4
CC(C)C(=O)OC/C(O)=C(\C#N)c1nc2ccccc2[nH]1	2335	-2	0.5	-37	1	-3	3
Cc1cccc(-n2cc(-c3ccccc3)c3c(NN4CCOCC4)ncnc32)c1	2015	-8	-0.6	4	14	-1	2
CC(C)Cn1nc(C(=O)OCC(=O)NCC(F)(F)F)c2ccccc2c1=O	4841	0	3.4	-24	3	0	10
CC(C)c1ccc(NC2CCCN(C(=O)CCCn3cncn3)C2)cc1 (stereo not given)	4980	1	-3.0	-2	-7	-5	-2
CCC(C)Sc1ccc(-c2nc3ccc(C)cn3c2NCc2ccccc2)cc1 (stereo not given)	3766&4420	·	6.3	-7	3	-2	3
Cn1c(N)c(C(=O)CSc2nnc(C3CC3)n2Cc2ccccc2)c(=O)[nH]c1=O	5811	·	1.0	5	-3	-3	3
Cc1ccc(NC(=O)CSc2nccn2Cc2ccco2)cc1	·	-13	2.7	-61	-2	-7	6
O=C(Cc1c(F)cccc1Cl)N/N=C/c1cccnc1	4101	2	·	-2	·	·	·
CCOc1c(Br)cc(/C=C2\C(=O)N(CCC#N)N=C2C)cc1OC	3757	-1	-1.1	-19	10	2	3
O=C(CSc1nc2ccccc2n1CC(=O)N1CCCC1)N1CCN(C(=O)c2ccco2)CC1	10148	7	-3.6	-15	-4	1	0
CC(CC(=O)NCc1ccco1)=NNC(=O)CC#N	·	·	4.1	·	12	9	3
Cc1cc(C)nc(/N=C(\N)Nc2ccc(C)c([N+](=O)[O-])c2)n1	8673	3	·	-20	·	·	·
Cc1cc(/C=C2/SC(=O)NC2=O)c(C)n1-c1ccc(N2CCOCC2)cc1	9442	-3	·	-6	·	·	·
O=C(COC(=O)CNS(=O)(=O)/C=C/c1ccccc1)Nc1cccc2ccccc12	2270	3	-3.0	-3	12	7	11
Cc1nc2ccc([N+](=O)[O-])cc2nc1C	4052	-10	7.2	-24	-1	5	2
COc1ccccc1NC(=O)N(Cc1ccccc1)c1ccccn1	2432	1	-7.8	-20	15	8	3
O=C(O)c1ccccc1C(=O)NNC(=O)C(c1ccccc1)c1ccccc1	5241	4	2.9	-22	6	-3	4
O=C(N/N=C/c1cc(Cl)cc([N+](=O)[O-])c1O)C1CC1	4152	1	·	-28	·	·	·
CN1CCSc2ccc(C(=O)NCc3cccc(F)c3)cc21	5475	-13	-9.5	-5	4	8	-6
O=C(CCNS(=O)(=O)c1ccccc1F)N1CCN(C(c2ccccc2)c2ccccc2)CC1	5544	2	0.2	8	14	2	26
O=S(=O)(Nc1ccc2c(c1)OCO2)c1cccc(Br)c1	4314	·	8.3	-4	5	3	3
O=S(=O)(c1ccc2nc(N3CCN(c4ccccc4F)CC3)ccc2c1)N1CCCCC1	5631	0	2.5	3	-4	3	5
O=C(O)/C=C/c1nc(-c2ccccc2)n2ccccc12	4520	8	4.1	-41	13	-4	7
CCO[C@@H]1OC(C(=O)O)=C[C@H](C)[C@H]1CCCO	3127	-8	·	-44	·	·	·
Cc1ccc(S(=O)(=O)CC(=O)Nc2sc(C)c(C)c2C(N)=O)cc1	?	-3	-2.1	2	-5	8	-1
CCOC(=O)C1CCN(C(=O)COC(=O)COc2ccc(Cl)cc2)CC1	4229	0	7.7	-4	13	1	6
CN=C1S/C(=C\c2cn(CC(=O)OC)c3ccccc23)C(=O)N1C	2607	-2	0.1	-9	19	13	6
CCCCN(C)Cc1c(C)[nH]c2c(ccc3ccccc32)c1=O	3072	-3	2.2	-17	-2	-4	12
O=c1ccc(NS(=O)(=O)c2ccccc2Cl)cn1Cc1ccc(Cl)c(Cl)c1	2782	4	22	4	9	3	-7

Whole records, quoted from the list. Values in the order: Bead autofluor	BJeLR lethal	RN4220 kill	PrP 5UTR inh	Mtb hypoxia rep	Mtb hypoxia rep growth	Sa ugtP lethal
Results for O=C(O)c1ccccc1C(=O)NNC(=O)C(c1ccccc1)c1ccccc1 → 5241	4	2.9	-22	6	-3	4
Results for CN1CCSc2ccc(C(=O)NCc3cccc(F)c3)cc21 → 5475	-13	-9.5	-5	4	8	-6

(next part)
SMILES	Bead autofluor	BJeLR lethal	RN4220 kill	PrP 5UTR inh	Mtb hypoxia rep	Mtb hypoxia rep growth	Sa ugtP lethal
Oc1ccc(Cl)cc1C1=Nc2ccccc2N=C(c2ccco2)C1	11307	-2	3.4	-13	-2	-9	13
COc1cc(C2NC(=O)CS2)cc(OC)c1OC (stereo not given)	2530	8	3.5	-25	13	3	-1
Cc1cc(=O)n2[nH]c(-c3ccc(C(C)(C)C)cc3)cc2n1	9463	0	2.9	·	2	1	0
COC(=O)c1cn(CC(=O)NCc2cccs2)c2ccccc12	4474	3	1.8	-73	·	·	7
Cc1ccc(-c2c(C(=O)N/N=C/c3ccoc3)nnn2-c2nonc2N)cc1	4580	14	·	2	·	·	·
Cc1ccc(S(=O)(=O)N(CC(=O)NCCSCc2ccco2)c2ccc(F)cc2)cc1	·	0	3.2	·	-8	7	-2
Cc1cc(C(F)(F)F)nc(SCC(=O)Nc2c(C)n(C)n(-c3ccccc3)c2=O)n1	6010	-3	0.5	6	1	5	6
CCn1c(=O)c2cc(C(=O)Nc3cc(C)on3)sc2c2ccccc21	5879	-5	-8.1	-18	2	9	-7
CCN(CC(=O)Nc1ccc2c(c1)OCCO2)S(=O)(=O)c1ccc(C)cc1	17435*	2	7.2	-8	7	9	5
Cc1[nH]nc2c1/C(=N/O)CC(c1ccccc1)C2 (stereo not given)	9194	1	·	-27	·	·	·
Cc1cc(C)c(S(=O)(=O)N2CCN(CCO)CC2)c(C)c1	5914	2	5.0	-3	·	·	9
COc1ccc(C(=O)Nc2cccc(C(C)=O)c2)cc1OC	7850	8	0.3	·	9	9	8
COc1ccc(-c2ccc(CCC(=O)O)n2NC(=O)c2cccs2)cc1	5075	-4	-0.2	-27	·	·	-1
Cc1ccc2nc(NCCCO)[nH]c2c1	3782	-6	2.4	-6	-84	-18	5
CCCCn1c(N)c(N(CCOC)C(=O)COc2ccc(Cl)cc2)c(=O)[nH]c1=O	3546	4	1.0	-17	13	3	2
CCC(C)c1ccc(O)c(NC(=O)c2cccnc2)c1 (stereo not given)	5256	-6	3.3	-14	·	·	7
CN1CCc2c(sc(N)c2C(N)=O)C1	11240	-2	0.3	5	-3	3	8
Cc1cccc(CSCCNC(=O)Nc2ccccc2)c1	2510	7	1.9	-8	10	3	-4
Cc1ccccc1NC(=O)CCC(=O)OCC(=O)c1cccc([N+](=O)[O-])c1	4050	-12	2.2	-6	2	12	-1
CC1CCCCN1C(=O)c1ccc(N2CC3CC(C2)c2cccc(=O)n2C3)c([N+](=O)[O-])c1 (stereo not given)	2669	19	5.0	-4	12	7	8
COCCN(CCOC)S(=O)(=O)c1ccc(C(=O)Nc2nc(-c3ccccc3)c(C(=O)c3ccccc3)s2)cc1	11497	-16	8.0	-24	11	1	-4
COC(=O)C(CC(C)C)NC(=O)C(Cc1ccccc1)NC(=O)C1CCCN1C(=O)OC(C)(C)C (stereo not given)	4289	-2	7.3	-13	-1	-8	4
O=C(NCCNCCO)C1(C(F)(F)F)CC(=CCCO)CCCO1 (stereo not given)	·	·	2.4	·	-2	8	-10
FC(F)(F)c1ccccc1CN1CCN(Cc2ccccc2)CC1	5772	4	2.4	-15	13	7	32
Cc1oc(-c2cccc(Cl)c2)nc1CN(C)C1CCOC1 (stereo not given)	2758	-6	1.5	-23	1	3	10
c1ccc(-c2cc(N3CCOCC3)nc3ccccc23)cc1	11444	-3	11	·	2	15	31
CCOC(=O)c1c(-c2ccccc2)nc2cc(C)ccn12	4233	-10	13	-46	·	·	-1
COc1ccc(-c2nc(CSCC(=O)NCCC3=CCCCC3)c(C)o2)cc1OC	3899	-13	5.3	-27	12	14	1
CCN1CCN(C(=O)c2ccc3c(Cl)c4c(nc3c2)CCCC4)CC1	3777	-4	4.1	4	19	1	1
CC1CCN(C(=S)Nc2cccc(S(=O)(=O)N(C)C)c2)CC1	2215	5	8.4	-13	-3	5	3
Cc1ccc(NC(=O)CCC(=O)NNC(=O)COc2ccccc2)c(C)c1	2501	16	2.4	-23	5	4	6
Cc1ncoc1C(=O)N1CCCC(C(=O)Nc2cccc(-c3ccc(F)cc3)c2)C1 (stereo not given)	5539	6	-3.2	0	-5	0	-1
Cc1cc(C(=O)COC(=O)c2ccc(Cl)c(S(N)(=O)=O)c2)c(C)n1C1CC1	·	-2	6.0	-69	7	2	-8
COc1ccc([N+](=O)[O-])cc1COc1cc(C)cc2oc(=O)cc(-c3ccccc3)c12	2777	-1	-7.4	-1	·	·	0
CC1(C)c2ssc(=S)c2-c2ccccc2N1C(=O)CSC1=NCCS1	3659	-2	5.6	-9	14	6	20
CCC/C=C1/CCCOC(C(=O)NCCN2CCOCC2)(C(F)(F)F)C1 (stereo not given)	3965	-16	·	-19	·	·	·
C#Cc1ccc(C2C=C(C(=O)O)OC(OCC)C2CCCO)cc1 (stereo not given)	·	·	2.4	·	11	4	3
COc1ccc(C(CC(=O)NC(C)(C)C)n2cccc2)cc1 (stereo not given)	·	0	3.6	-12	1	7	-3
CC(C)(C)C(=O)CN1CCN(S(=O)(=O)c2ccc(F)cc2)CC1	2446	-7	2.6	-21	·	·	0
Cc1cccc(N2C(=O)NC(=O)/C(=C\c3cccn3-c3ccc(Cl)cc3)C2=O)c1	?	-1	2.3	-9	-4	6	-9

Part of the list above with just BJeLR lethal:
molecule	BJeLR lethal
Cc1ccc(NC(=O)CCC(=O)NNC(=O)COc2ccccc2)c(C)c1	16
Cc1ncoc1C(=O)N1CCCC(C(=O)Nc2cccc(-c3ccc(F)cc3)c2)C1 (stereo not given)	6
Cc1cc(C(=O)COC(=O)c2ccc(Cl)c(S(N)(=O)=O)c2)c(C)n1C1CC1	-2
COc1ccc([N+](=O)[O-])cc1COc1cc(C)cc2oc(=O)cc(-c3ccccc3)c12	-1
CC1(C)c2ssc(=S)c2-c2ccccc2N1C(=O)CSC1=NCCS1	-2

More compounds follow.
SMILES	Bead autofluor	BJeLR lethal	RN4220 kill	PrP 5UTR inh	Mtb hypoxia rep	Mtb hypoxia rep growth	Sa ugtP lethal
CC(C)(C)c1ccc(S(=O)(=O)N2CCN(CC(=O)NC(=O)NC3CCCCC3)CC2)cc1	5555	1	-1.0	-8	1	10	4
O=C(Cn1nc(-c2ccc(N3CCOCC3)c([N+](=O)[O-])c2)c2ccccc2c1=O)N1CCCCC1	·	-6	1.0	-3	1	-7	12
O=C(CN1C(=O)NC(Cc2ccccc2)C1=O)Nc1ccc(F)c(F)c1F (stereo not given)	·	·	4.5	-10	12	5	5
COc1cc(C=c2sc(=CC(=O)C(C)(C)C)[nH]c2=O)cc(OC)c1OC	·	·	2.7	·	10	0	-14
COc1ccccc1C1C2CCCCC2(O)CCN1CC(=O)Nc1ccccc1 (stereo not given)	10989	5	6.7	-41	6	7	0
CN(c1ccccc1)P(=O)(N(C)c1ccccc1)N(C)c1ccccc1	4315	11	3.6	49	18	14	1
Cn1c(=O)[nH]c(=O)c2c1nc(SCCN1CCOCC1)n2Cc1ccccc1	3894	0	1.0	-18	·	·	2
